UCH37 inh: human UCH37 deubiquitinating enzyme inhibition; purified proteasome/UCH37, Ub-AMC cleavage fluorescence; inhibition, % (concentration not given with the values); 330,000 compounds, 0.33% hits; AID 588478;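 active means mean of two replicates above 20%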;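 further: 0% = compound-free wells with enzyme and 100% = wells lacking proteasome; stock transfer was 100 nL into about 20 µL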
Target sequence (Q9Y5K5 whole entry, looked up): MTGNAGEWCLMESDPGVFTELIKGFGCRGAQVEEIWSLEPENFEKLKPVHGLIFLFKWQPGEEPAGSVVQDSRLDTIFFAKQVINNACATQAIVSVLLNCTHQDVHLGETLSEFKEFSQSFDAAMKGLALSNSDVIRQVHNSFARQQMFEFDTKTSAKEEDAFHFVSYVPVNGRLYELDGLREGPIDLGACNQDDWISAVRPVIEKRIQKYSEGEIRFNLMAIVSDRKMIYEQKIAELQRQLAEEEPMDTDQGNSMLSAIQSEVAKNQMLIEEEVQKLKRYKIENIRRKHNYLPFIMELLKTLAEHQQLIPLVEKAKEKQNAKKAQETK
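Material: Human UCH37 enzyme supplied as purified proteasome complex | Schedule: 30 min preincubation with enzyme, 25 min cleavage at room temperature | Detection: AMC fluorescence 355/460 nm | Measure: % inhibition of Ub-AMC cleavage fluorescence | Controls: Wells without proteasome as full block, compound-free enzyme plus substrate as uninhibited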
HNF4A DNA FP: change in binding of human HNF4 alpha to DNA. HNF4a-FITC DNA binding, fluorescence polarization, 1 h. activity change, % at 10 µM. 360,000 compounds, 0.3% hits; in the data active means activity change above about 30%, passing the limit was not always enough;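 further: controls were the assay level and a saturating level of protein; the project sought stronger binding though the title names inhibitors; some compounds called inactive have numbers as strong as hits; positive values seem to mean higher polarization but the record does not say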
Target sequence (P41235 whole entry, looked up): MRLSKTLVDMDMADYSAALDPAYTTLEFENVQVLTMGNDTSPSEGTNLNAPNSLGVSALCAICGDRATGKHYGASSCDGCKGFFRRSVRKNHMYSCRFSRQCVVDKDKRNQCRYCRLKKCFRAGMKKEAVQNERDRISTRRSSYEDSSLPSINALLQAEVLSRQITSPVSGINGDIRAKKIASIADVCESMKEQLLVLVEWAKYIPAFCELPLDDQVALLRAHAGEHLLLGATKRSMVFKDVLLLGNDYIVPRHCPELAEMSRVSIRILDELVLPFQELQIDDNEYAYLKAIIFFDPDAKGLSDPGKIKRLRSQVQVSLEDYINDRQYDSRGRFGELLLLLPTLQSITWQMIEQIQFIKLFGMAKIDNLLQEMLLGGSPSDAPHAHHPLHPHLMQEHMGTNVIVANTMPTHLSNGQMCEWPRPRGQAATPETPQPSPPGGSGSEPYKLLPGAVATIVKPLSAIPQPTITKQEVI
RanGTP-Impb inh: disruptors of Ran-importin-beta complex formation – biochemical, FRET, CFP-Ran, YFP-importin-beta, homogeneous, primary screen. 300,000 compounds, 1.1% hits. cell-free CFP-Ran/YFP-importin-beta FRET ratio. inhibition, % (concentration not given with the values);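 active means most replicates above 15%; inconclusive means exactly half above 15%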;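 further: 0% = DMSO wells and 100% = Ran loaded with GDP instead of GTP; wells of about 40 µL received 100 nL stock; the first replicate is given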
FGF22 binding: shifts melting point of recombinant human FGF22; recombinant FGF22 thermal shift, SYPRO orange fluorescence; percent of sucrose octasulfate shift, DMSO zero; calls only at 9.99 µM; 340,000 compounds, 1.5% hits;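 active means melting point raised past a set limit in the mean and every replicate; inconclusive means no clear call; three in four hits are not shown here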
Target sequence (Q9HCT0 whole entry, looked up): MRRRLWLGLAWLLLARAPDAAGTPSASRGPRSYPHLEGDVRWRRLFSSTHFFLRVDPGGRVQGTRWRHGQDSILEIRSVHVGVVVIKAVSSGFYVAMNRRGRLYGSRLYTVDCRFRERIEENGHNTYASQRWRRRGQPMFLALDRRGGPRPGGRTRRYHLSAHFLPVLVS
Vif TR-FRET: HIV-1 Vif–A3G interaction blockers – biochemical, TR-FRET, GST-Vif 1-94, biotin-A3G peptide, dose response retest, primary screen (AID 1117319); TR-FRET GST-Vif / biotin-A3G peptide binding; higher % means a stronger effect; test concentration not given here; strong numbers were not always called active; inhibition, %; hits with a dose series show IC50 in µM; 260,000 compounds, 0.57% hits;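 active means above the screen mean plus three standard deviations and confirmed in dose response; inconclusive means results disagree or hit not tested in dose response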;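 further: Vif residues 1-94 fused to GST binding biotinylated APOBEC3G peptide 110-148; 0% = full assay without inhibitor and 100% = GST in place of GST-Vif; retest series ran down from 100 µM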
AF4-AF9 inh: inhibitors of human MLL-AF4/AF9 interaction | AID 651704 | P42568 | 350,000 compounds, 0.47% hits | AlphaScreen, biotin-AF4 peptide binding to FLAG-AF9 | inhibition, % at 10 µM;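 active means every replicate reaching a set inhibition limit, whatever the replicate mean, cut at about 25% in these data; inconclusive means mean inhibition reaches that limit but some replicates miss it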;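 further: 0% = plate neutral control median and 100% = total signal loss; the record names both 10 and 1 µM as test concentration; the first replicate is given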
Ecoli growth: E. coli growth inhibition. Escherichia coli growth, OD600, 23 h; hits give low values. OD600 absorbance (concentration not given with the values). 330,000 compounds, 0.21% hits. AID 1053175;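 active means OD600 absorbance below the run mean of sample wells minus 3.6 SD, in any replicate, cut at about 0.56 in these data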;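 further: stock transfer was 300 nL into about 60 µL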
* marks the source's active call; other numbers are inactive results; i = inactive; ? = inconclusive; · = no result given; & = joins results of further samples.

structure | UCH37 inh | HNF4A DNA FP | RanGTP-Impb inh | FGF22 binding | Vif TR-FRET | AF4-AF9 inh | Ecoli growth
O=S(=O)(c1ccc(Cl)c(NC(=S)N/N=C/c2c(F)cccc2F)c1)N1CCOCC1 | · | 0.6 | ? | i | -1% | 3.7 | ·
Cc1cc(C(=O)CSc2nc3ccc(Cl)cc3[nH]2)c(C)n1CC1CCCO1 (stereo unspecified) | -0.2 | 4.6 | -0.3 | · | 25% | · | 0.7
CC(C)C(C(=O)NCc1ccco1)N(C(=O)CNS(=O)(=O)c1ccccc1)C1CCCC1 (stereo unspecified) | 5.0 | -0.5 | 3.6 | · | -5%&-5% | · | 0.76
Cc1c(CN2CCC(n3nccc3NC(=O)C3CC3)CC2)[nH]c2ccccc12 | 0.6 | 1.8 | 6.4 | i | 3% | 5.1 | 0.69
CCOC(=O)c1oc2ccccc2c1COC(=O)CNC(=O)c1ccccc1OC | 1.9 | -2.3 | 1.4 | i | 3% | -1.1 | 0.72
CC1(C(=O)Nc2ccc3c(c2)OCCO3)CCN1C(=O)c1cccc(F)c1 (stereo unspecified) | · | 2.7 | · | i | · | 2.2 | ·
CCOC(=O)C(=CNc1ccc(Oc2cccnc2)nc1)C(=O)OCC | 8.7 | 4.8 | -0.7 | i | 2% | -0.9 | 0.67
Cc1cccc(N(C(=O)c2csnn2)C(C(=O)NC2CCCCC2)c2ccncc2)c1 (stereo unspecified) | 0.7 | -1.1 | 3.1 | i | · | 1.2 | 0.71
COc1ccccc1NC(=O)C1=C(C)NC2=C(C(=O)CCC2)C1c1ccc(C)o1 (stereo unspecified) | -4.5 | -0.5 | 1.3 | · | 2% | · | 0.69
COc1ccc(-n2nc(C(=O)NCC(=O)NCc3ccc(F)cc3)c3ccccc3c2=O)cc1OC | -10 | 8.1 | 3.1 | i | · | -2.4 | 0.71
CCOCCn1c(=NC(=O)c2ccc(S(=O)(=O)N3CCOCC3)cc2)sc2cc(S(N)(=O)=O)ccc21 | -62 | -0.1 | 1.9 | i | -6% | -1.2 | 0.72
Fc1ccccc1NC(=S)NCc1ccc2c(c1)OCO2 | 2.4 | -2.7 | ? | i | 0% | -0.8 | 0.66
COc1ccccc1CN1CCCC(CNC(=O)c2cccc3ccccc23)C1 (stereo unspecified) | 6.2 | 7.1 | 1.2 | i | · | -0.5 | 0.68
COc1ccc2[nH]cc(CCNC(=O)COc3cc(C)cc4oc(=O)cc(C)c34)c2c1 | -0.1 | 1.2 | -2.9 | i | · | 3.5 | 0.74
O=C(NCCN1CCNC1=O)c1ccc2sc([C@H]3C[C@H](O)[C@@H](CO)O3)nc2c1 | · | 9.5 | · | i | · | -5.0 | ·
Cc1ccc2nc(SCC(=O)NCc3ccccc3)nc(=O)n2c1 | -9.9 | 1.7 | 5.4 | i | -12% | 3.3 | 0.67
O=C(N/N=C/c1ccncc1)c1ccc(NC(=O)c2ccc(Cl)cc2)cc1 | · | 6.4 | · | i | -4% | 2.9 | ·
NC(=O)C1CCN(C(=O)CCc2nc3ccccc3c(=O)[nH]2)CC1 | -0.1 | 0.1 | -2.1 | i | ? | 0.6 | 0.72
CC(C)c1ccc(NC(=O)c2ccc(NS(C)(=O)=O)cc2)cc1 | 1.0 | 1.8 | -1.3 | i | · | -0.2 | 0.66
Cc1cc(CNC(=O)COc2ccccc2F)c2ccccc2n1 | 1.3 | 4.6 | 5.0 | i | -11% | -3.9 | 0.69
Cc1nc(C)c(-c2ccc(SCC(=O)Nc3ccccc3)nn2)s1 | 2.0 | 0.5 | 1.9 | i | -27% | -0.8 | 0.7
CC1(C)NC(=O)N(CC(O)CN(c2ccccc2)S(=O)(=O)c2ccccc2[N+](=O)[O-])C1=O (stereo unspecified) | 2.0 | -3.9 | 1.4 | i | 6% | 3.5 | 0.66
CCCN(C(=O)COC(=O)CCOc1ccccc1)c1c(N)n(Cc2ccccc2)c(=O)[nH]c1=O | · | 0.1 | -0.6 | i | · | -0.7 | ·
COC(=O)c1ccccc1NC(=S)NC(=O)c1ccccc1C | 5.2 | 1.7 | -0.3 | · | -9% | · | 0.69
COc1ccc(-c2nc(CCNC(=O)c3ccc(Br)o3)cs2)cc1 | 0.4 | 2.6 | -2.4 | i | 5% | 5.2 | 0.71
COC(=O)c1ccc(CSc2nnc(Nc3ccc(C)cc3)s2)o1 | 6.1 | -0.7 | 5.4 | · | -1% | · | 0.7
CCCc1[nH]nc2c1C(c1cccc(OC(=O)c3ccco3)c1)C(C#N)=C(N)O2 (stereo unspecified) | 0.2 | 1.3 | -4.4 | · | 5% | · | 0.66
CCC(Sc1nc2c(c(=O)[nH]1)CCC2)C(=O)Nc1cccc(OC)c1 (stereo unspecified) | 2.1 | 1.5 | ? | · | 5% | · | 0.7
CCCCCCn1cnc2c(c1=O)c1nc3ccccc3nc1n2/N=C/c1ccco1 | · | -0.9 | 2.8 | · | 16% | · | ·
O=C(Cc1ccccc1[N+](=O)[O-])Nc1nccs1 | 4.8 | 0.8 | 4.4 | i | 30% | ? | 0.65
Cc1ccc(S(=O)(=O)N2CCN(c3ncnc4ccccc34)CC2)cc1 | 4.9 | 1.1 | · | i | · | 0.0 | 0.71
Cc1occc1-c1nnc(SCC(=O)Nc2nc(-c3ccccc3)cs2)o1 | 1.9 | -0.8 | 2.6 | i | -4% | 9.5 | 0.7
Cc1ccc(S(=O)(=O)c2c(C)nn(C(C)(C)C)c2OC(=O)C(C)C)cc1 | 1.9 | -0.4 | -0.5 | i | 4% | -14 | 0.66
CCC1=Nc2cc(C(=O)N3CCCCC3)ccc2Sc2ccc(C)cc21 | 4.2 | -2.0 | 0.3 | i | · | 8.2 | 0.71
COc1ccc(-n2nc(C(=O)NCC(=O)N3CCN(c4ccccc4F)CC3)c3ccccc3c2=O)cc1 | -81 | -0.5 | ? | i | · | -1.3 | 0.72
CCCCn1c(SCC(=O)NCc2ccco2)nc2c(sc3ccccc32)c1=O | -11 | -1.6 | ? | · | -3% | · | 0.68

Structural class, the compounds so far containing a Cl atom
structure | UCH37 inh | HNF4A DNA FP | RanGTP-Impb inh | FGF22 binding | Vif TR-FRET | AF4-AF9 inh | Ecoli growth
O=S(=O)(c1ccc(Cl)c(NC(=S)N/N=C/c2c(F)cccc2F)c1)N1CCOCC1 | · | 0.6 | ? | i | -1% | 3.7 | ·
Cc1cc(C(=O)CSc2nc3ccc(Cl)cc3[nH]2)c(C)n1CC1CCCO1 (stereo unspecified) | -0.2 | 4.6 | -0.3 | · | 25% | · | 0.7
O=C(N/N=C/c1ccncc1)c1ccc(NC(=O)c2ccc(Cl)cc2)cc1 | · | 6.4 | · | i | -4% | 2.9 | ·

New compounds follow.
structure | UCH37 inh | HNF4A DNA FP | RanGTP-Impb inh | FGF22 binding | Vif TR-FRET | AF4-AF9 inh | Ecoli growth
Cc1nc(-c2ccccc2)nc2n[nH]c(N)c12 | 4.4 | -0.1 | 1.1 | i | · | -3.2 | 0.66
O=C(Cc1ccc(Cl)cc1)Nc1ccc(C(=O)N2CCCCC2)cc1 | -2.1 | 4.5 | 0.5 | i | 4% | 0.3 | 0.69
CCNC(=O)COc1ccc(C=O)cc1OC | 3.2 | -2.4 | 6.3 | · | · | · | 0.69
COc1ccc(S(=O)(=O)Nc2ccc3c(c2)[C@H]2C[C@H](CC(=O)NCC4CC4)O[C@@H](CO)[C@H]2O3)cc1 | · | 0.0 | · | i | -5% | 2.3&-3.2 | ·
COCCNC(=O)c1c[nH]c2ccc(OC)cc2c1=O | -1.7 | -0.4 | -1.6 | · | -1% | · | 0.66
CNC(=O)NC(=O)COC(=O)c1ccc(-n2c(C)ccc2C)cc1 | 5.0 | -0.8 | 2.2 | · | · | · | 0.72
O=C(Cn1cc2c(n1)CCCCC2)N1CCCCC1 | 3.1 | 1.5 | 2.5 | i | 1% | -0.6 | 0.75
COC1=C/C(=C/c2c(N)n3nc(-c4ccc(C)cc4)sc3nc2=O)C=CC1=O | 7.0 | 60* | · | i | 9% | -0.4 | 0.65
COc1ccccc1S(=O)(=O)Cc1ccc(C(=O)NCCN(C)C)o1 | 1.4 | -0.6 | 4.0 | i | 3% | -2.7 | 0.73
CCOC(=O)N1CCN(C(=O)COc2ccc(Cl)cc2C)CC1 | 2.6 | -0.8 | -1.0 | · | 1% | · | 0.7
CCCCNC(=O)c1ccc(NS(=O)(=O)c2ccccc2)cc1 | -0.1 | -3.9 | -0.7 | · | ? | · | 0.75
C/C(=N\NC(=O)Cc1ccc(Cl)c(Cl)c1)c1cccnc1 | · | 1.3 | -0.2 | i | · | -0.3 | ·
O=C1NC[C@H](CC2CCCCC2)N(CCc2cc(C(F)(F)F)cc(C(F)(F)F)c2)C1=O | · | -1.5 | · | i | · | 0.6 | ·
Cc1ccsc1CN1CC(=O)N(c2c(C)cccc2C)C1=S | 0.9 | 0.2 | -1.9 | i | -6% | -1.1 | 0.72
Cc1ccc(S(=O)(=O)N2[C@H](C(C)C)[C@H]3[C@H]4C(=O)N(c5ccccc5)C(=O)[C@H]4CC(=O)[C@H]3[C@@H]2c2ccccc2)cc1 | · | -3.7 | · | i | · | -3.5 | ·
NC12CCc3c(no[n+]3[O-])C1(O)CC(c1ccccc1)=[N+]2[O-] (stereo unspecified) | 1.7 | -2.3 | 5.0 | i | 2% | -57 | 0.67
Nc1c(C(=O)CSc2nncn2-c2ccccc2)c(=O)[nH]c(=O)n1C1CC1 | -0.2 | 2.8 | · | i | 3% | -5.4 | 0.7
O=C(COc1cccnc1[N+](=O)[O-])Nc1ccc(S(=O)(=O)N2CCOCC2)cc1 | 4.8 | 3.8 | 1.8 | i | 19% | -0.6 | 0.66
CCOC(=O)Cn1nc2oc(=O)c(CCN3CCN(c4ccccc4OC)CC3)c(C)c2c1C | · | 0.9 | · | i | 0% | -4.8 | ·
C[C@H](CO)N1C[C@H](C)[C@@H](CN(C)CC2CC2)Oc2c(NS(=O)(=O)c3ccc(F)cc3)cccc2C1=O | 7.3 | 2.7 | · | i | -1% | -0.2&-1.1 | 0.7
CCOc1ccccc1NC(=O)NCc1ccc2c(c1)OCO2 | 2.4 | -1.0 | 0.1 | i | 0% | -0.4 | 0.68
O=C(c1cc(F)c(F)cc1Cl)N1CCN(c2ccc([N+](=O)[O-])c3ncccc23)CC1 | 2.5 | 1.0 | 0.8 | i | · | 0.4 | 0.71
CCCCN1Cc2cc(C(=O)c3cc(OC)ccc3O)cnc2NC1=O | 0.4 | 0.2 | -2.8 | · | 2% | · | 0.75
O=c1[nH]c(C2CCN(S(=O)(=O)c3ccccc3F)CC2)nc2c1nnn2Cc1ccc(F)cc1 | -0.1 | 2.6 | 2.3 | i | -3% | -0.9 | 0.61
COc1ccccc1-n1cnnc1SCC(=O)c1cc(C)n(Cc2cccs2)c1C | 4.9 | -0.6 | ? | · | 6% | · | 0.75
C=CCn1c(COc2ccc(OC)cc2)nnc1SC(C)C(=O)NC1CC1 (stereo unspecified) | 1.4 | 0.9 | · | i | -2% | -9.2 | 0.66
Cc1nc2ccc(C(=O)N3c4ccccc4N=C(c4ccc5c(c4)OCO5)C3C(=O)NCc3ccccc3)cc2[nH]1 (stereo unspecified) | · | 1.3 | · | i | · | 1.2 | ·

Screens: PubChem BioAssay, several laboratories

The list is partial (hit frequency here may not be typical).
